Compound activity from PubChem.
PMP22 txn = modulates PMP22 transcription in S16 Schwann cells. S16 Pmp22-F2sN Schwann cells (luciferase reporters placed in the Pmp22 gene), FLuc/NLuc coincidence luminescence, 24 h. Potency, µM (series often up to 57.5 µM), without a hit: top-dose activity change, negative = inhibition, hits mostly inhibitors. 2% of 43,000 active. AID 1508649; active = clear falling dose curves in both reporters; inconclusive = both reporters move, but less clearly or upward; inactive = either reporter flat; the % is the NLuc reporter signal; note: % is set by controls: 0 for no effect and ±100 for the full control effect; some results filed as inactive show a strong effect at the top dose
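S16(c9) Schwann cells with FLuc/NLuc coincidence reporter in the Pmp22 3' UTR; compounds pin-transferred, 24 h at 37C. Dual-luciferase read: FLuc first, then NLuc after Stop&Glo, each 10 min at room temperature.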
HTT promoter inh = HTT promoter inhibition | HEK293 HTT promoter firefly luciferase reporter (activity 0% = vehicle and -100% = no light), 24 h | Potency, µM (titrated, usually from 57.5 µM), for the others: at the highest dose activity change, negative = inhibition, usual class: inhibitors | 0.93% of 48,000 active; active = well fitted inhibition curve with a large enough effect; inconclusive = small, poorly fitted or top-dose-only effect; inactive = no such curve, though single readings can be large or run the other way; note: nearly all actives have a fitted effect of over 50% in size
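Firefly luciferase readout (Dual-Glo, 10 min RT) after 24 h, 37 °C compound exposure (final up to 57.5 uM) of HEK293 reporter cells cultured 24 h beforehand; PTC124 at 50 uM final as control inhibitor; activity scaled vehicle 0%, zero RLU -100%.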
* hit, by the source's call; ? = inconclusive; . = not tested or not shown; [ ] = another dose, or the depositor's remark. Potency is the fitted concentration of half-maximal effect.

SMILES | PMP22 txn | HTT promoter inh
COC(=O)c1ccccc1NC(=O)Cc1nc(-c2ccc(OC)cc2)no1 | -15% | -17%
CC(=O)c1ccc(NC(=O)CSc2nc3c(=O)n(C)c(=O)n(C)c3n2C)cc1 | -5% | 6%
O=C1Nc2ccc(I)cc2C1=Cc1cc(Br)c(O)c(Br)c1 | . | -3%
CCc1nc(SCc2cc(=O)c3cc(C)ccc3[nH]2)n[nH]1 | 6% | -1%
CCOC(=O)c1ccc(NS(=O)(=O)c2ccc3[nH]c4c(c3c2)CCCCC4)cc1 | ? | -38%
CN1C(=O)C(C)(C)c2cc(S(=O)(=O)N3CCCC3C(=O)Nc3ccc(F)cc3)ccc21 (stereo unspecified) | 1% | ?
CCN(CC)CCNC(=O)c1cn(CCOC)c(=O)c2c1c1ccccc1n2C | 13% | -8%
O=C(CSc1c2c(nc3ccccc13)CCC2)Nc1ccc(F)cc1 | ? | -13%
CCCCNC(=O)CCSc1nc(-c2ccc3c(c2)OCO3)cc(C(F)(F)F)n1 | -23% | -2%
O=C(NCc1ccccc1Cl)c1ccc(-n2cnc3cccnc32)cc1 | -16% | -7%
CCCc1cc(=O)[nH]c2nnc(SC(C)CC)n12 (stereo unspecified) | 11% | -11%
NS(=O)(=O)c1cc2c(cc1Cl)NC(CC1CCCC1)NS2(=O)=O (stereo unspecified) | . | 1%
CCOc1ccccc1CNC(=O)c1cc2cc(S(=O)(=O)N3CCCCC3)ccc2n1C | ? | ?
CC(=O)c1ccc2c(c1)N(CCCN1CCC(CCO)CC1)c1ccccc1S2 | . | -1%
CCOc1ccccc1NC(=O)c1cc2cc3cc(C)ccc3nc2s1 | ? | -9%
CCCCn1c(COc2cccc(OC)c2)nc2ccccc21 | 14% | -3%
CCCCC(=O)NC1CC(=O)N(c2ccc3c(c2)OCCO3)C1 (stereo unspecified) | 14% | -15%
Cc1cc(-c2ccc(C)c(S(=O)(=O)NCc3ccc(Cl)cc3)c2)on1 | ? | ?
COc1ccc(/C=C(\NC(=O)c2ccccc2)C(=O)NC2CCCCC2)cc1 | -11% | -4%
CCN(CC)c1cc(C)c2cc(NC(=O)/C=C/c3ccc(C)cc3)ccc2n1 | -18% | ?
CCOC(=O)c1cc(-c2ccc(OC)cc2)n(CCC(=O)Nc2ccc(OC)cc2OC)c1C | -19% | ?
Cc1ccc(CCNC(=O)C2CC(=O)N(CCc3ccc(C)cc3)C2)cc1 (stereo unspecified) | 6% | -17%
CCn1c(=O)cc(OCC(=O)NCc2ccccc2OC)c2ccccc21 | ? | -14%
O=C(CCC(=O)N1Cc2ccccc2Oc2ncccc21)NCc1cccc(Cl)c1 | 2% | -5%
COc1cccc(-c2ncnn2-c2sc3c(c2C#N)CCCCC3)c1OC | -20% | 13%

Compound profiles, as listed above. Order of values: PMP22 txn	HTT promoter inh
COC(=O)c1ccccc1NC(=O)Cc1nc(-c2ccc(OC)cc2)no1 across the screens: -15%	-17%
CCCCn1c(COc2cccc(OC)c2)nc2ccccc21 across the screens: 14%	-3%

Part of the list above, set out differently.
Each structure is followed by: PMP22 txn | HTT promoter inh
- Cc1ccc(CCNC(=O)C2CC(=O)N(CCc3ccc(C)cc3)C2)cc1 (stereo unspecified)
→ 6% | -17%
- CCn1c(=O)cc(OCC(=O)NCc2ccccc2OC)c2ccccc21
→ ? | -14%
- O=C(CCC(=O)N1Cc2ccccc2Oc2ncccc21)NCc1cccc(Cl)c1
→ 2% | -5%
- COc1cccc(-c2ncnn2-c2sc3c(c2C#N)CCCCC3)c1OC
→ -20% | 13%

(continued)
SMILES | PMP22 txn | HTT promoter inh
CCOc1ccc(CNCc2c(C(=O)O)c(C)n(Cc3c(F)cccc3Cl)c2C)cc1OC | -11% | -11%
Cc1ccc(CNC(=O)c2ccc(N3Cc4ccccc4Oc4ncccc43)s2)cc1 | -8% | ?
CCn1cc2nc(SCc3cccc(C(F)(F)F)c3)n(Cc3ccc(C)cc3)c(=O)c2n1 | ? | -9%
COc1ccc(NC(=O)CSC2=Nc3ccccc3C3=NC(CCC(=O)NC4CCCCC4)C(=O)N23)cc1 (stereo unspecified) | -5% | -11%
CC(=O)Nc1ccc(C(=O)CSc2nnc3ccc4ccccc4n23)cc1 | 2% | -3%
Cc1cc(C)cc(-n2nnc(-c3nc(-c4ccccc4F)no3)c2C)c1 | 16% | 7%
CCOC(=O)c1ccc(NC(=O)C2=C(C)C(=O)OC23CCN(C(C)=O)CC3)cc1 | 10% | -2%
COCCc1nn2c(=O)cc(COC(=O)c3cccs3)nc2s1 | -10% | 47%[activator]
c1ccc(-c2cc3ncc4c(n3n2)-c2ccccc2OC4)cc1 | ? | 67%[activator]
COc1cccc(-c2nc(CSCC(=O)NCCc3ccc(Cl)cc3)c(C)o2)c1 | ? | ?
O=C(COc1ccccc1-c1nnc(-c2ccccc2)o1)Nc1ccc(Br)cc1F | -19% | -14%
COc1ccc(C)cc1NC(=O)CN1CCN(S(=O)(=O)c2ccc(Br)cc2)CC1 | -8% | -10%
COC(=O)c1c(C)sc(-c2c(-c3ccc4c(c3)OCCO4)[nH]c3c2c(=O)n(C)c(=O)n3C)c1O | 8% | -15%
Cc1cc(NC(=O)C2CCCN(S(=O)(=O)c3cccc4nsnc34)C2)ccc1Br (stereo unspecified) | -26% | 0%
Fc1ccc(Nc2nc(SCc3cccc(Cl)c3)nc3ccccc23)cc1 | ? | ?
COc1cccc(CNc2cc(C)nc3nc(-c4ccc(C)cc4)nn23)c1 | -12% | -6%
COc1cccc(NC(=O)CN(C)S(=O)(=O)c2ccc3nc(C)sc3c2)c1 | -20% | -25%
CCN(CC)CCNC(=O)c1ccc(NC(C)=O)cc1 | . | 2%
Cc1cc(C)cc(N2C(=O)N(CC(=O)c3ccc(Br)cc3)c3ccccc3S2(=O)=O)c1 | 8% | -23%
CCCNC(C)(C)COC(=O)c1ccccc1 | . | 7%
FC(F)(F)C(F)(F)C(F)(F)C(F)(F)C(F)(F)C(F)(F)C(F)(F)C(F)(F)Br | . | 0%
N#C/C(=C\c1cccc(F)c1)c1nc(-c2cc3c(ccc4ccccc43)oc2=O)cs1 | -22% | 5%
CCCOc1ccc(CNC(=O)C(NS(=O)(=O)c2cccs2)C(C)C)cc1 (stereo unspecified) | ? | -15%
CCOC(=O)N1CCc2c(sc3c2c(=O)n(Cc2ccccc2)c(=O)n3Cc2cc(C)ccc2C)C1 | 1% | -4%
Cc1cccc(-n2c(=O)c3ccccc3n(Cc3ccccc3)c2=O)c1 | -20% | -24%
SMILES | PMP22 txn | HTT promoter inh
Cc1cc(C)c(NC(=O)CSc2nc(=O)n(Cc3cccnc3)c3c2CCC3)c(C)c1 | ? | -14%
CN(C)S(=O)(=O)c1ccc(C(=O)N2CC(=O)Nc3ccc(Br)cc3C2c2ccc(F)cc2)cc1 (stereo unspecified) | -24% | -4%
Cc1ccc(NC(=O)CN2CCN(S(=O)(=O)c3ccc(C(C)C)cc3)CC2)cc1F | ? | -20%
COc1cccc(CNC(=O)CNS(=O)(=O)c2ccc3nc(C)sc3c2)c1 | -14% | -4%
COc1ccc(Br)cc1Cn1nnc(C(=O)Nc2ccc(C)cc2C)c1N | ? | ?
Cc1cc2c(cc1C)NC(CC(=O)Nc1cccc(Cl)c1)C(=O)N2 (stereo unspecified) | -39% | -20%
Cc1cc2c(cc1S(=O)(=O)Nc1ccc(OC(F)(F)F)cc1)OCC(=O)N2 | -141% | ?
CCc1ccc(C2C(C(=O)Nc3ccccc3OC)=C(C)Nc3c(C(=O)Nc4ccc(C)cc4)cnn32)cc1 (stereo unspecified) | 12% | -12%
O=C(Cn1ncc2c3ccccc3n(Cc3ccc(F)cc3)c2c1=O)NCc1cccs1 | 13% | -8%
CC(CCc1ccccc1)NC(=O)Cn1c(=O)nc(-c2ccccc2)c2cc(Cl)ccc21 (stereo unspecified) | ? | 8%
Cc1nc2ccn(Cc3cccnc3)c(=O)c2cc1C(=O)N1CCN(c2ccccc2F)CC1 | ? | -2%
COc1cccc(CNC(=O)CCS(=O)(=O)c2ccc3c(c2)oc(=O)n3C)c1 | -23% | 54%[activator][11.5 µM]
COc1ccccc1CNC(=O)CCCCn1c(=O)c2ccccc2n(CC(=O)Nc2cc(Cl)ccc2C)c1=O | ? | ?
O=C(CSc1nc2ncccc2o1)Nc1cccc(C(F)(F)F)c1 | ? | 21%
Cc1ccc(S(=O)(=O)c2[nH]c(-c3ccccc3)nc2SCC(N)=O)cc1 | -15% | -7%
O=C(CCn1c(=O)c2cccn2c2ccc(F)cc21)NCc1ccccc1F | ? | -12%
Cc1ccc(NC(=O)N2CCN(Cc3nc4ccc(C)cc4o3)CC2)cc1 | 9% | -37%
COc1cccc(C(=O)N2c3ccc(C)cc3C(C)(c3ccccc3)CC2(C)C)c1 (stereo unspecified) | ? | ?
Cc1ccc(Cl)cc1N1CCN(C(=O)c2cccn2-c2nnc(N3CCCCC3)s2)CC1 | ? | -53%
Cc1cn2c(=O)cc(COC(=O)c3ccc(NC(=O)c4ccccc4C)cc3)nc2s1 | ? | -13%
Cc1cc(C)cc(NC(=O)Cn2c(=O)n(-c3cc(C)cc(C)c3)c(=O)c3oc4ccccc4c32)c1 | 2% | ?
COc1ccc(N2CCN(C(=O)NCc3noc4ccccc34)CC2)cc1 | -3% | -6%
COC(=O)[C@@H]1CC2=CC(=O)CC[C@]2(C)[C@@]23O[C@@H]2C[C@@]2(C)[C@H](CC[C@@]24CCC(=O)O4)[C@@H]13 | . | 9%
Cc1cc(C)c2nc(N3CCCC(C(=O)NCc4ccccc4F)C3)sc2c1 (stereo unspecified) | -13% | 18%
COc1ccc(-c2nsc(NC(=O)c3oc4cc(C)c(C)cc4c3C)n2)cc1 | -2% | -4%

Fetched by compound from the entries so far, 4 records:
SMILES | PMP22 txn | HTT promoter inh
Cc1ccc(CCNC(=O)C2CC(=O)N(CCc3ccc(C)cc3)C2)cc1 (stereo unspecified) | 6% | -17%
Cc1ccc(CNC(=O)c2ccc(N3Cc4ccccc4Oc4ncccc43)s2)cc1 | -8% | ?
CCN(CC)CCNC(=O)c1cn(CCOC)c(=O)c2c1c1ccccc1n2C | 13% | -8%
COC(=O)c1ccccc1NC(=O)Cc1nc(-c2ccc(OC)cc2)no1 | -15% | -17%

Next results
SMILES | PMP22 txn | HTT promoter inh
CSc1ccc(CNC(=O)CCn2ccc3cc(S(=O)(=O)N4CCCC4)ccc32)cc1 | ? | ?
CCOC(=O)C1CCN(CC(=O)Nc2cc(C)c3c(=O)oc4ccccc4c3n2)CC1 | 0% | -7%
Cc1ccc(CNC(=O)CS(=O)(=O)Cc2nc(-c3ccccc3C)oc2C)cc1 | -9% | -15%
CN(C)c1ccc(C(=O)NCCCCCCC(=O)NO)cc1 | . | 234%[activator]
O=C(CC1C(=O)OCCN1Cc1ccccc1)Nc1cccc(C(F)(F)F)c1 (stereo unspecified) | -2% | ?
COc1cccc(NC(=O)CSc2nc(-c3ccccc3)nc3c2Cc2cc(Cl)ccc2O3)c1 | -2% | -16%
Cc1cccc(C)c1NC(=O)NCCc1c[nH]c2ccccc12 | 2% | -7%
O=C(Cn1c(=O)ccc2cc(S(=O)(=O)N3CCCC3)ccc21)NCc1ccc(Cl)cc1 | -17% | -12%
COc1ccccc1NC(=O)CN1CCCN(S(=O)(=O)c2ccc(Br)cc2)CC1 | ? | ?
COc1ccc2nc(NS(=O)(=O)c3ccc(C)cc3)c(Nc3cc(Cl)ccc3OC)nc2c1 | ? | ?
Cc1ccc(NC(=O)c2oc3ccccc3c2NC(=O)c2ccc(F)c(F)c2)cc1 | -5% | -12%
COc1ccc(Br)cc1C(=O)Nc1cccc2ccc(C)nc12 | -1% | -13%
CCOc1ccc(CNC(=O)CCC(=O)N2Cc3ccccc3Oc3ncccc32)cc1 | -27% | 4%
CCOC(=O)c1cccc(NC(=O)Cn2c(=O)c3cccn3c3ccccc32)c1 | -28% | -9%
Cc1cn2c(=O)cc(COc3cccc(NC(=O)c4ccccc4Cl)c3)nc2s1 | 2% | 6%
COc1ccc(Nc2ncc3c(n2)CCN(Cc2ccc(Br)s2)C3)c(OC)c1 | ? | 17%
Cc1cccc(NS(=O)(=O)c2nnc(NC(=O)C3CCCCC3)s2)c1 | 8% | ?
COc1ccc(-n2c(=O)c3ccccc3n(CC(=O)NCCc3ccccc3)c2=O)c(OC)c1 | -16% | ?
Cc1ccc(CNC(=O)c2c(Nc3ccccc3C)sc(C(=O)c3ccc(F)cc3)c2N)cc1 | ? | ?
COc1ccccc1CNC(=O)CCC1N=C2c3ccccc3N=C(SCC(=O)Nc3ccc(N(C)C)cc3)N2C1=O (stereo unspecified) | ? | -8%
Cc1cc(C)n(C(C)CC(=O)Nc2ccc(Cl)cc2C)n1 (stereo unspecified) | -6% | -10%
O=C(Nc1ccc(F)cc1F)c1ccc(-n2cnc3cccnc32)cc1 | ? | -3%
Cc1cc(C)c(NC(=O)Nc2csc3c2CCCC3)c(C)c1 | -15% | -4%
CCN(c1ccccc1)S(=O)(=O)c1ccc(NC(=O)c2cc(=O)c3cc(C)cc(C)c3o2)cc1 | -16% | 4%
COc1ccc(-c2cn3nc(N4CCCC(C(=O)NCc5ccccc5C)C4)sc3n2)cc1 (stereo unspecified) | ? | -27%
CCCN1CCN(CCCNC(=O)c2cnn(-c3ccc(F)cc3)c2-n2cccc2)CC1 | -26% | -31%
O=C(c1cc2ccccc2oc1=O)N1CCN(c2ccc(F)cc2)CC1 | -35% | 0%
